High-throughput results (PubChem BioAssay)
Rango-impB inh – Rango-importin beta binding inhibition | Potency, µM (doses to about 92.2 µM), without a hit: top-dose inhibition of complex formation | Rango CFP/YFP FRET sensor + importin beta, 45 min | Q14974 | 340,000 tested, 0.031% active | AID 540263; active = rising FRET ratio curve, often small or poorly fitted; inconclusive = mostly compound fluorescence or quenching in the first reads; inactive = flat curves in all reads;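 further: potency means the concentration at half of the fitted maximal effect; 0% = DMSO wells and 100% = buffer wells lacking importin beta; nearly all actives have a fitted effect of over 15% in size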
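FRET biosensor (snurportin 1 IBB flanked by EYFP and cerulean), 50 nM, with compound 5 min, then 0.125 microM importin beta in PBS, 1 mM DTT, 0.02% Tween-20, 0.1% BSA. CFP/YFP ratio read after 45 min at room temperature; pre-read flags interference.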
miR-21 reporter – raises the signal of a miR-21 reporter; HeLa miR-21 FLuc reporter, luciferase, 48 h; Potency, µM (highest dose often 38.3 µM), without a hit: at the top dose reporter change, positive = more light; 340,000 tested, under 10 active; AID 2288; active = well fitted rising curve with a large enough effect; inconclusive = small, poorly fitted or top-dose-only effect; inactive = no such curve, though single readings can be large or run the other way;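 further: % of control where 0% means no effect; miR-21 action dims this reporter so a rising signal means less miR-21 action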
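HeLa cells stably expressing CMV-driven firefly luciferase with a downstream miR-21 binding sequence, endogenously expressing miR-21, were treated with titrations (up to about 40uM final) for 48 hours at 37 degree Celsius. Luciferase luminescence was read after lysis.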
GLA inh pH 4.5 – inhibitors of human alpha-galactosidase A at pH 4.5; P06280; purified enzyme, 4-MU-alpha-Gal fluorescence, pH 4.5; activity change, negative = inhibition, % at 105 µM; 230,000 tested, under 10 active; AID 1467; inconclusive = small, poorly fitted or top-dose-only inhibition, or a rising curve; inactive = flat fitted curve, though single readings scatter; no compound was filed as active;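 further: 0% = full activity with enzyme and -100% = basal without enzyme; dose as in the result columns while the protocol names 77 µM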
Target sequence (P06280 whole entry, looked up): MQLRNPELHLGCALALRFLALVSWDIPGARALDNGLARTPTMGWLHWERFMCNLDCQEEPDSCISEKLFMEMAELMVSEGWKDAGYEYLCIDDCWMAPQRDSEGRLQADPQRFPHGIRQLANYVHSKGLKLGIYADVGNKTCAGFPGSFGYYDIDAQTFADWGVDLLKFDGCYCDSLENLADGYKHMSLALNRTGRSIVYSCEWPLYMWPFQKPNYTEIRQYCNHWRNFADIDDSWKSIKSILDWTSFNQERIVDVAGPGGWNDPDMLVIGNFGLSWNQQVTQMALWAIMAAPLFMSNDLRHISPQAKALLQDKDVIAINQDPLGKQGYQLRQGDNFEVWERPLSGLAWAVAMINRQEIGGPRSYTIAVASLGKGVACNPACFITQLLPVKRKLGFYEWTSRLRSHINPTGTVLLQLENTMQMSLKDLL
Rango dissoc inh – inhibition of RanGTP-driven Rango-importin beta dissociation | O95149+P62826 | Biochemical FRET Rango-importin beta, RanGTP-induced dissociation | Potency, µM (series often up to 46.1 µM), for the others: top-dose activity change, negative = inhibition | 340,000 tested, 0.071% active | AID 540253; active means falling FRET ratio curve, often poorly fitted, with flat reads before Ran was added; inconclusive means other falling curves, or compound fluorescence or quenching; inactive means flat or rising ratio curve;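 further: potency means the concentration at half of the fitted maximal effect; % of control where 0% means no effect; nearly all actives have a fitted effect of over 45% in size; -100% = wells without RanGTP and RCC1; the record marks most hits as doubtful in a second field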
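Compounds preincubate 5 min with complex of recombinant Rango and importin beta in PBS with 1 mM DTT. Ran (0.6 uM) loaded with 2 mM GTP plus 0.2 uM RCC1 starts dissociation; FRET is recorded 45 min later.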
Active calls of the source: *; ? = inconclusive; / = not tested or not shown. Some of the compounds tested, so the mix of outcomes need not match the whole.

no. | Rango-impB inh | miR-21 reporter | GLA inh pH 4.5 | Rango dissoc inh | canonical_smiles
1 | 0.0% | -6% | 0 | -4% | O=C1c2ccccc2C(Nc2ccccc2F)N1c1cccnc1 (configuration not stated)
2 | ? | 13% | / | ? | COc1cccc(C(=O)NCC(c2cccnc2)N2CCN(c3ccccc3OC)CC2)c1 (configuration not stated)
3 | 4.0% | -20% | 13 | 8% | COC(=O)c1cc(S(=O)(=O)Nc2nn(C)c3cccc(F)c23)oc1C
4 | -0.9% | -9% | -8 | 1% | CCCOc1ccc(OCCNC2CCCC2)cc1
5 | -0.9% | -47% | -8 | 11% | S=C(c1ccc(-c2ccc(Cl)cc2)o1)N1CCCCC1
6 | -2.9% | / | / | 2% | Cc1ccc(COc2coc(CN3CCN(C(=O)c4ccco4)CC3)cc2=O)cc1
7 | -3.1% | / | / | 23% | CC(C)(C)OC(=O)C[C@H]1C/C=C\C[C@@H](CC(=O)N(CCO)Cc2ccccc2)C(=O)NC[C@@H](c2ccccc2)OC1=O
8 | 2.3% | 1% | -2 | 8% | COc1cc(/C=C/C(=O)O)cc(S(=O)(=O)NCC2CCCO2)c1OC (configuration not stated)
9 | ? | -8% | 6 | ? | COc1ccccc1-n1cnc2cc(NCc3ccccc3O)ccc21
10 | ? | -7% | 0 | -8% | Cc1ccc(Cn2nnc3c(=O)[nH]c(C4CCN(C(=O)c5cccs5)CC4)nc32)cc1
11 | 0.3% | -9% | -15 | 16% | CC(C)(C)C(=O)Nc1ccc(C(=O)N/N=C/C2CC3C=CC2C3)cc1 (configuration not stated)
12 | -0.6% | / | / | 11% | COc1ccc(NC(=O)N(C)C[C@H]2Oc3ccc(NS(=O)(=O)c4cccs4)cc3C(=O)N([C@@H](C)CO)C[C@@H]2C)cc1
13 | -1.4% | 1% | 11 | -5% | CCCC1CCc2c(sc(NC(=O)OCC)c2C#N)C1 (configuration not stated)
14 | -1.6% | 1% | 4 | 27% | O=C(Cn1c(=O)oc2cc(S(=O)(=O)N3CCCCC3)ccc21)N1CCc2ccccc21
15 | -0.5% | / | / | 4% | COc1ccc(C(=O)Nc2ccccc2N2CCOCC2)cc1S(=O)(=O)N1CCOCC1
16 | -1.2% | -4% | / | 3% | O=C(O)CCN1C(=O)/C(=C\c2ccc(OCc3ccccc3)c(OCc3ccccc3)c2)SC1=S
17 | 3.5% | 2% | 3 | 0% | COC(=O)c1c(N2C(=O)CC(Sc3ncccc3C(=O)O)C2=O)sc(C)c1C (configuration not stated)
18 | 4.4% | -6% | / | 31% | Cc1ccc(CN(C)C(=O)C2CCC(=O)N(C3CCCCCC3)C2)cc1 (configuration not stated)
19 | 0.7% | -6% | 1 | 14% | COc1ccc(S(=O)(=O)N(C)CC(=O)N2CCCCCC2)cc1OC
20 | -0.8% | / | / | 12% | CN(CC(=O)Nc1ccc(N2CCOCC2)cc1)C(=O)c1cc2c(s1)CCCC2
21 | -4.6% | -6% | -16 | 6% | CCNc1nc(NCC)n2c(SCC(=O)Nc3ccccc3)nnc2n1
22 | ? | 1% | -4 | ? | Cc1cc2cc(CNS(=O)(=O)c3ccccc3)ccc2n1C
23 | 0.9% | -4% | / | 12% | COc1cc(NC(=O)c2c(F)c(F)c(OC)c(F)c2F)ccc1NC(=O)c1cccs1
24 | 3.3% | -12% | / | 5% | S=C(NCc1ccco1)Nc1ccc(Cl)cn1
25 | -4.4% | / | / | 19% | Fc1ccc2cnc(-c3ccccc3)c(-c3cccc(C(F)(F)F)c3)c2c1
26 | ? | -5% | / | -12% | CCn1cc(C(=O)NN)c(=O)c2cc(F)c(N3CCOCC3)cc21
27 | 0.4% | 0% | / | -2% | COc1cccc(CNC(=O)CNC(=O)N2CC(=O)Nc3ccccc32)c1
28 | 0.1% | -17% | 2 | 15% | O=C(/C=C/c1cccs1)c1ccc(Br)cc1
29 | -1.3% | 22% | / | -10% | CC(=O)Nc1ccc(NC(=O)C2CCCCN2S(=O)(=O)c2ccc(C(C)(C)C)cc2)cc1 (configuration not stated)
30 | -0.3% | / | / | -4% | Cc1cc(C(=O)OCC(=O)NCc2ccc(Cl)cc2Cl)c(C)o1
31 | 1.1% | -10% | -3 | 2% | Cc1cccc(C(=O)N/N=C/c2ccc(OCC(=O)N3CCCCC3)cc2)c1
32 | -0.4% | -3% | 0 | 5% | CCCn1c(=O)c(C(=O)NCc2ccco2)c(O)c2ccccc21
33 | 1.0% | -1% | / | -12% | CCOc1ccc(CNS(=O)(=O)c2c(C)nc3sccn3c2=O)cc1OC
34 | -1.7% | ? | 2 | -7% | COc1ccc(CCNc2ncnc3c2oc2ccccc23)cc1OC
35 | 3.1% | 21% | -8 | 5% | COc1ccc(NS(=O)(=O)c2cc(NC(=O)c3ccco3)ccc2N2CCCCC2)cc1
36 | -1.9% | 0% | 4 | -16% | FC(F)(F)c1cccc(NC(=S)N2CCN(c3ccccn3)CC2)c1
37 | -2.7% | 12% | -11 | -2% | Cc1cc(C)cc(NC(=O)c2nnn(Cc3cc(C)ccc3C)c2N)c1
38 | -1.7% | / | / | -1% | COc1ccc(C(=O)Nc2ccc(N3CCOCC3)cc2)cc1S(=O)(=O)N1CCOCC1
39 | 2.0% | -3% | 0 | 3% | CCOC(=O)c1cc(CC)sc1NC(=O)CC1Sc2ccc(C(F)(F)F)cc2NC1=O (configuration not stated)
40 | -2.8% | 9% | 8 | 7% | CC(C(c1cccs1)c1c(N)n(C)c(=O)n(C)c1=O)[N+](=O)[O-] (configuration not stated)
41 | -1.3% | 0% | -1 | 9% | O=C1CC(c2ccccc2)CC(O)=C1C=NCCN1CCN(Cc2ccccc2)CC1 (configuration not stated)
42 | 0.4% | 1% | -3 | 19% | Cc1ccc(C)c(S(=O)(=O)N2CCCOC2CNC(=O)C(=O)NCCC2=CCCCC2)c1 (configuration not stated)
43 | -0.1% | / | / | 1% | CCOC(=O)[C@@H]1[C@H]2COc3ccc(Br)cc3[C@H]2N2C(=O)N(c3ccc(OC)cc3)C(=O)[C@]12C
44 | / | 13% | -20 | / | Cc1ccc(N2C(=O)N(CC(=O)C(C)(C)C)c3ccccc3S2(=O)=O)cc1
45 | ? | / | / | -8% | CSc1nc2ccc(NC(=O)COc3ccccc3F)cc2s1
46 | 3.4% | 1% | / | 24% | COc1cccc(N2CCN(c3ccc4nnc(CCC(=O)Nc5ccccn5)n4n3)CC2)c1
47 | ? | 4% | -7 | ? | CCOC(=O)C1CCN(C(=O)Nc2ccc3nc(-c4ccco4)c(-c4ccco4)nc3c2)CC1
48 | 3.1% | 1% | 7 | -1% | CCN(CC)CCN1C(=O)C(=O)/C(=C(/O)c2ccc(OC(C)C)cc2)C1c1ccncc1 (configuration not stated)
49 | -1.5% | -1% | 7 | -2% | COc1ccc(OCC(=O)N2CCN(S(=O)(=O)c3ccc(Cl)cc3)CC2)cc1
50 | 2.1% | / | / | 10% | Cc1ccccc1CSc1ccc(S(=O)(=O)N2CCCC2)cn1
51 | -1.2% | -25% | / | ? | CC(C)CC(=O)Nc1nnc(CCc2ccccc2)s1
52 | 0.2% | 0% | -1 | -3% | CC(C)(C)NC(=O)NC(=O)CN1CCN(Cc2ccccc2)CC1
53 | -1.0% | -5% | -27 | 0% | Cc1cccc(C)c1-n1c(SCC(=O)NCc2ccco2)nc2ccccc2c1=O
54 | 0.7% | -2% | / | -3% | Cc1ccnc(SC2CC(=O)N(c3ccc(Cl)cc3)C2=O)n1 (configuration not stated)
55 | 2.0% | -104% | / | -8% | O=C(O)c1ccc(N/N=C/c2cccc(C(F)(F)F)c2)cc1
56 | -0.8% | / | / | 14% | CC1=CC(=O)CC(C)(C)[C@@]1(O)/C=C/[C@@H](C)O[C@@H]1O[C@H](CO)[C@@H](O)[C@H](O)[C@H]1O
57 | 4.5% | 0% | 8 | 0% | Cc1cc(NC(=O)CS(=O)(=O)Cc2ccccc2)no1
58 | -2.2% | 19% | 1 | 2% | COc1ccc(CCNC(=O)CCCCCNc2nc(=S)[nH]c3ccccc23)cc1OC
59 | -3.3% | / | / | -8% | Cc1nc2ccccc2c(C)c1CC(=O)N(C)CC(=O)Nc1cccc(F)c1
60 | -2.2% | -1% | 7 | -2% | Cn1c(=O)c(C(=O)CN2CCCCC2)c(N)n(Cc2ccccc2)c1=O

Single records, as listed above:
Profile of Cc1cc2cc(CNS(=O)(=O)c3ccccc3)ccc2n1C = Rango-impB inh: ?; miR-21 reporter: 1%; GLA inh pH 4.5: -4; Rango dissoc inh: ?
Profile of COC(=O)c1cc(S(=O)(=O)Nc2nn(C)c3cccc(F)c23)oc1C = Rango-impB inh: 4.0%; miR-21 reporter: -20%; GLA inh pH 4.5: 13; Rango dissoc inh: 8%

Part of the list above with just miR-21 reporter and Rango-impB inh.
entry	Compound	miR-21 reporter	Rango-impB inh
53	Cc1cccc(C)c1-n1c(SCC(=O)NCc2ccco2)nc2ccccc2c1=O	-5%	-1.0%
54	Cc1ccnc(SC2CC(=O)N(c3ccc(Cl)cc3)C2=O)n1 (configuration not stated)	-2%	0.7%
55	O=C(O)c1ccc(N/N=C/c2cccc(C(F)(F)F)c2)cc1	-104%	2.0%
56	CC1=CC(=O)CC(C)(C)[C@@]1(O)/C=C/[C@@H](C)O[C@@H]1O[C@H](CO)[C@@H](O)[C@H](O)[C@H]1O	/	-0.8%

Additional records follow:
no. | Rango-impB inh | miR-21 reporter | GLA inh pH 4.5 | Rango dissoc inh | canonical_smiles
61 | 2.2% | / | / | 6% | COc1ccc(NC(=O)CN(C)C(=O)C2=NN(c3ccccc3)C(=O)CC2)cc1
62 | -1.6% | -9% | 1 | 45% | COc1cc(C(c2c(C)[nH][nH]c2=O)c2c(C)[nH][nH]c2=O)ccc1OS(=O)(=O)c1ccc(C)cc1
63 | -2.6% | 0% | 1 | 13% | O=C(NCc1cccnc1)c1cccc(NC(=O)c2ccco2)c1
64 | -0.4% | -4% | / | 8% | O=C1CCCN1CCCNc1ccc2nnc(CCC(=O)N3CCN(c4ccccc4)CC3)n2n1
65 | -4.7% | -1% | -1 | 4% | O=C(CSc1ccccc1)Nc1ccc(S(=O)(=O)Nc2ncccn2)cc1
66 | -0.7% | / | / | 1% | CC(=O)Nc1ccc(C(=O)OCC(=O)NCc2ccc3c(c2)OCO3)cc1
67 | -3.4% | -56% | 0 | -8% | CC1(C)CC(=O)c2sc(NS(=O)(=O)Cc3ccccc3)nc2C1
68 | 2.9% | -7% | / | 1% | CC1(C)CCc2cc(CN3CCN(c4ccccn4)CC3)ccc2O1
69 | -4.1% | 2% | 2 | -17% | CCOc1ccc(-n2c(=O)c3sccc3n(CC(=O)NCc3ccco3)c2=O)cc1
70 | -2.2% | 0% | / | 4% | O=c1ccc2cc(S(=O)(=O)N3CCN(c4ccccc4)CC3)ccc2[nH]1
71 | -0.2% | 3% | 0 | 0% | CC(=O)c1cccc(NC(=O)C2C3C=CC(C3=C(c3ccccc3)c3ccccc3)C2C(=O)O)c1 (configuration not stated)
72 | -0.2% | / | / | -13% | COc1ccc(S(=O)(=O)NCc2cccnc2)cc1NC(=O)c1ccc(Cl)cc1
73 | / | -1% | -16 | / | COc1ccc(Cn2c3nc4ccccc4nc3c3c(=O)n(Cc4ccco4)cnc32)cc1
74 | -0.8% | 3% | / | 14% | C/C(=N/NS(=O)(=O)c1ccc(Cl)cc1)c1ccncc1
75 | -1.8% | / | / | -17% | COc1ccc(CCC(=O)OCC(=O)N(C)c2c(N)n(Cc3ccccc3)c(=O)[nH]c2=O)cc1
76 | 2.5% | / | / | -11% | CC(C)CN(C(=O)c1cccs1)C1CCS(=O)(=O)C1 (configuration not stated)
77 | 4.7% | -6% | -1 | 9% | Cc1ccc(OC(=O)C(C)c2cccc(C(=O)c3ccccc3)c2)cc1 (configuration not stated)
78 | -0.2% | 1% | -6 | 18% | O=C(Cc1cc(=O)[nH]c(=O)[nH]1)NCCN1CCOCC1
79 | ? | 17% | / | ? | CCCN1CCc2c(sc3nc(SC)n(-c4ccccc4)c(=O)c23)C1
80 | -2.6% | 0% | 11 | 14% | COc1ccc(C(=O)Nc2nc(N)n(-c3ccccc3)n2)cc1OC
81 | 0.9% | / | / | 2% | Cc1ccc(S(=O)(=O)N2CCCCC2)cc1NC(=O)C1=NN(c2ccccc2)C(=O)CC1
82 | ? | 0% | 7 | -8% | CCCOC1(NC(=O)c2ccccc2)C(C)=CC(=O)C=C1C
